Screening data as filed in PubChem BioAssay.
RN4220 kill: kills Staphylococcus aureus RN4220; S. aureus RN4220 growth, OD600, 16 h; inhibition, % (test concentration not listed); 0.33% of 330,000 active;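 active = z-score of -3 or lower and OD600 up to 0.18 on both plates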;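 also: plate controls were untreated cells for no effect and reference antibiotic for full effect; stock transfer was 100 nL into about 80 µL; one replicate is shown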
BJeLR lethal: BJeLR cell viability loss | 0.17% of 300,000 active | inhibition, % (test concentration not listed) | AID 1554 | BJeLR (HRASV12) viability, CellTiter-Glo ATP luminescence, 48 h; reference of the scale not given here;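 active = replicate mean above 50%; inconclusive = above 50% but judged a plate artefact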;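 also: 50 nL library stock added to about 25 µL; numbers are from one replicate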
ugtP null kill: growth inhibition of S. aureus ugtP deletion strain; S. aureus RN4220 ugtP deletion, OD600 growth, 16 h; some inactives read as strong as hits; growth inhibition, % (no concentration beside the values); 0.54% of 330,000 active; AID 1259309;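 active = z-score under -3 and OD600 up to 0.15 on both plates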;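 also: plate controls were untreated wells for no effect and antibiotic for full effect; wells of about 80 µL received 100 nL stock; the first replicate is given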
Mtb hypoxia inh: reduces hypoxia-regulated biosensor signal in M. tuberculosis. M. tuberculosis hypoxia-regulated fluorescent reporter, fluorescence. fluorescence inhibition, % (test concentration not listed). 0.1% of 300,000 active;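 active = 35 to 45% if threefold the growth effect, above 45% if 1.5-fold the growth effect; inactive = the rest, general growth blockers included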;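 also: wells of about 50 µL received 100 nL stock; 0% = vehicle wells and 100% = reference inhibitor wells; whole bacteria with a GFP reporter of the hypoxia response; strong numbers were not always called active; many hits fall short of the cut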
Autofluor counter: compound fluorescence in toxin protease inhibitor counterscreen. 3.1% of 360,000 active. compound autofluorescence counterscreen, microsphere flow cytometry; stronger effect = higher value. fluorescence intensity (test concentration not listed);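 active = at least 3 SD above the mean of all compounds, about 16000 in these data; inconclusive = too few beads counted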;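 also: 100 nL of 1 mM stock went into each well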
PrP 5UTR inh: inhibition of PrP 5' UTR reporter expression | cell-based PrP 5' UTR mRNA reporter, plate reader | inhibition, % (no concentration beside the values) | 0.35% of 340,000 active;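 active = every replicate at 50% or more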;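 also: 0 = median of the neutral control wells; tested in H4 reporter cells; numbers are from one replicate; inactives centre near -14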
Mtb hypoxia inh growth: also measured in Mtb hypoxia inh; calls as there; growth inhibition, %; measured here: M. tuberculosis growth (absorbance);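 0% = vehicle and 100% = reference antibiotic; read after six days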
Active calls of the source: *; ? = inconclusive; / = not tested or not shown.

SMILES | RN4220 kill | BJeLR lethal | ugtP null kill | Mtb hypoxia inh | Mtb hypoxia inh growth | Autofluor counter | PrP 5UTR inh
O=C(CCCN1C(=O)c2ccccc2C1=O)NCc1cccnc1 | 2.7 | 12 | -10 | 2 | 8 | 22861* | -42
Cc1ccc(SCCC(=O)OCn2nnc3ccccc3c2=O)cc1 | 1.9 | 5 | 3 | 13 | 12 | 3618 | -13
CC1CC(C)CN(CC(=O)N2CCOCC2)C1 (stereo not drawn) | 3.7 | 0 | 1 | 18 | 6 | 4165 | -30
CCC1Oc2ccccc2N(CC(=O)Nc2ccc3c(c2)OCCO3)C1=O (stereo not drawn) | -1.9 | 6 | -1 | 8 | 5 | 9916 | -41
COc1ccc(C(=O)NNC(=O)C23CC4CC(CC(C4)C2)C3)cc1OC | 3.3 | / | 10 | 8 | -1 | 4000 | -27
O=C(CCSCc1ccccc1Cl)NC1CCCC1 | 4.5 | -12 | -4 | -1 | -3 | 6781 | -16
CCOC(=O)c1c(C)n(-c2ccccc2)c2ccc(O)cc12 | 10 | 4 | -14 | 23 | 3 | 4846 | -4
COc1ccc(S(=O)(=O)N(CC(=O)N/N=C/c2ccccc2C(=O)O)c2ccccc2OC)cc1 | / | 3 | / | / | / | 3528 | -4
COc1ccc(C(=O)NNC(=O)c2cc(C)nc3ccccc23)cc1 | 3.3 | / | -8 | -2 | 9 | 8209 | -1
COc1cc(C2CC(=O)NC(SCC(=O)Nc3ccccc3C)=C2C#N)ccc1O (stereo not drawn) | -0.2 | -4 | 1 | / | / | 4288 | -21
Cc1ccc2nc(N3CCN(C)CC3)c(C=O)c(=O)n2c1 | -0.3 | 6 | 18 | 5 | 8 | 3682 | /
Cc1ccc(-c2nc(N)sc2CC(=O)OCC(=O)N2C(C)CCCC2C)cc1 (stereo not drawn) | 1.7 | -2 | 3 | -1 | 0 | 2373 | -18
O=S(=O)(NC1=NCCCCC1)c1cc(F)ccc1F | 2.0 | / | 1 | 7 | -10 | 4155 | -23
COC(=O)c1sccc1NC(=O)C12CC3CC(CC(C3)C1)C2 | 6.3 | -1 | 16 | 18 | 13 | 8475 | -35
O=C(Nc1cccc(NC(=O)c2cccs2)c1)c1ccco1 | 5.8 | 2 | -2 | 10 | 13 | 8630 | -10
CN(C)c1ccc(C2/C(=C(/O)c3ccc(Br)cc3)C(=O)C(=O)N2C)cc1 (stereo not drawn) | 1.2 | -5 | -3 | -15 | 9 | 3848 | 2
CCc1ccccc1NC(=O)CN1CCN(CC(=O)Nc2cc(C)ccc2OC)CC1 | -1.0 | 0 | 4 | -6 | -9 | 4351 | 3
CCN(Cc1cc2cccc(C)c2[nH]c1=O)C(=O)c1ccccc1OC | 7.0 | 0 | -5 | 5 | -7 | 2421 | -22
Cc1ccc2sc(NC(=O)CSc3nc(C)cc(C)c3C#N)nc2c1 | 2.1 | 15 | 7 | -7 | -3 | 22663* | -108
CC(C)C[C@H]1CN=C(N(C)C)N1CCc1cccc(F)c1 | -17 | / | -4 | 13 | 4 | 3724 | -6
COc1cc(/C=N/NC(=O)C(=O)N2CCCC2)ccc1O | / | 15 | / | / | / | 6040 | -16
O=c1cc(N2CCN(Cc3ccccc3)CC2)[nH]c(=O)n1-c1cccc(C(F)(F)F)c1 | 4.5 | -2 | 6 | -1 | 5 | 4374 | -52
CCn1c(SCC(=O)Nc2ccc(NC(=O)c3ccco3)c(OC)c2)nc2ccccc2c1=O | -1.9 | -11 | -13 | -1 | -1 | 20994* | 12
CCOC(=O)c1cc2occc2n1CC(=O)Nc1ccc(OC)cc1OC | 3.5 | 0 | 4 | 2 | 7 | 5320 | -31
CN1C(=O)SC(Nc2ccccc2)C1=O (stereo not drawn) | -12 | 3 | 3 | 9 | 4 | 2380 | -3

In a second layout: entries from further up
> COc1cc(/C=N/NC(=O)C(=O)N2CCCC2)ccc1O
- RN4220 kill: /
- BJeLR lethal: 15
- ugtP null kill: /
- Mtb hypoxia inh: /
- Mtb hypoxia inh growth: /
- Autofluor counter: 6040
- PrP 5UTR inh: -16

> O=C(CCCN1C(=O)c2ccccc2C1=O)NCc1cccnc1
- RN4220 kill: 2.7
- BJeLR lethal: 12
- ugtP null kill: -10
- Mtb hypoxia inh: 2
- Mtb hypoxia inh growth: 8
- Autofluor counter: 22861*
- PrP 5UTR inh: -42

> O=C(CCSCc1ccccc1Cl)NC1CCCC1
- RN4220 kill: 4.5
- BJeLR lethal: -12
- ugtP null kill: -4
- Mtb hypoxia inh: -1
- Mtb hypoxia inh growth: -3
- Autofluor counter: 6781
- PrP 5UTR inh: -16

Looked up above.
`Cc1ccc2nc(N3CCN(C)CC3)c(C=O)c(=O)n2c1` | RN4220 kill: -0.3
`CC1CC(C)CN(CC(=O)N2CCOCC2)C1` (stereo not drawn) | Autofluor counter: 4165

(list continues)
SMILES | RN4220 kill | BJeLR lethal | ugtP null kill | Mtb hypoxia inh | Mtb hypoxia inh growth | Autofluor counter | PrP 5UTR inh
COCCCN1C(=O)C(O)=C(C(C)=O)C1c1cccc(F)c1 (stereo not drawn) | 0.0 | 0 | 2 | / | / | 4663 | -4
COc1ccc(NC(=O)N(C2CCCCC2)C2CCN(C(C)C)CC2)c(OC)c1 | -17 | -2 | -2 | 0 | 3 | 2300 | 1
Cc1cc(C)cc(Cn2ncc(Cl)c(Cl)c2=O)c1 | 30 | -1 | 38 | / | / | / | /
O=C(c1cc2cc(Cl)ccc2oc1=O)N1CCN(c2ccccn2)CC1 | -1.3 | 1 | -1 | 2 | 16 | 4351 | -9
COc1cc(C=NNC(=O)c2ccncc2)ccc1OCCN1CCCCC1 | 2.6 | / | 2 | 8 | 1 | / | /
COc1ccc(C(=O)NCc2cc(C)nc3ccccc23)cc1 | -1.6 | -2 | 9 | 3 | 8 | 2601 | -4
COc1ccc(NCc2nn(CC(=O)c3ccc(Br)cc3)c3[n+]2CCCCC3)cc1 | 1.1 | -7 | 2 | 1 | 17 | 6696 | -23
COc1cccc(/C=C2\SC(=S)N(CCC(=O)NNC(=O)c3ccccc3OC)C2=O)c1 | 4.4 | -12 | -1 | 7 | 2 | 3486 | -13
FC(F)(F)c1cc(-c2ccco2)nc(NCc2ccccc2)n1 | -1.3 | -2 | -14 | 5 | 8 | 9030 | -19
O=C(COC(=O)c1ccc(F)cc1F)Nc1ccc2[nH]c(=O)[nH]c2c1 | -0.1 | -6 | -11 | 0 | 1 | 2150 | 2
CCOC(=O)NC(=O)COC(=O)CCCc1nc2ccccc2s1 | -2.1 | 3 | -11 | -10 | -9 | 3267 | -9
COc1ccc2oc(C(=O)Nc3cccc(S(=O)(=O)N4CCOCC4)c3)c(C)c2c1 | -2.7 | / | -13 | -4 | 0 | 6572 | -21
CCC(=O)Nc1cc(C)c(OC)c(C)c1 | 3.9 | 0 | 6 | 7 | 1 | 1989 | -11
CCc1cc2c3c(c(=O)oc2cc1OC(C)C(=O)O)CCCC3 (stereo not drawn) | -2.3 | 7 | -2 | -11 | 0 | 2827 | -3
Cc1ccc(C2=Nc3ccccc3N=C(c3ccco3)C2)c(O)c1 | -13 | -7 | -1 | 8 | 3 | ? | -36
CC(=O)C(=Nc1ccccc1Cl)NNc1ccc(Cl)cc1 | -9.8 | -2 | -17 | -86 | -19 | 3864 | -25
NC(=O)C1=C[C@H](c2csc3ccccc23)C[C@H](OCc2ccc(CO)cc2)O1 | / | -2 | / | / | / | 3870 | -7
O=C(CN1CCCC1)NCC12CC3CC(CC(C3)C1)C2 | 5.8 | -20 | 6 | / | / | 12139 | -16
CC(=O)c1cccc(NC(=O)N2CCCC2C(=O)NC2CCCC2)c1 (stereo not drawn) | -0.5 | 3 | 14 | 8 | 5 | 3626 | -20
COc1ccc(Cl)cc1N(C(C)C(=O)O)S(C)(=O)=O (stereo not drawn) | 0.5 | -6 | 0 | 2 | 5 | 4482 | -13
CC(=O)Nc1cccc(C(=O)OC(C(=O)c2ccc(C)c(C)c2)c2ccccc2)c1 (stereo not drawn) | 0.5 | 6 | 66 | 0 | 3 | 19826* | -17
CC(=O)Nc1ccc(-c2cn3ccsc3n2)cc1 | 0.3 | 1 | 0 | / | / | 4693 | -60
CC(Cc1ccccc1)NC(N)=O (stereo not drawn) | 4.8 | 2 | 2 | 1 | 1 | 4250 | -16
Cc1ccc(C(=O)NC(=S)N2CCN(c3cc(C)ccc3C)CC2)cc1 | -8.2 | 2 | 2 | -3 | 8 | 6161 | -43
CCC(=NCc1ccc2c(c1)OCO2)c1c(O)n(C)c(=O)n(C)c1=O | -1.1 | 1 | -4 | -6 | 1 | 3898 | -4

(further entries)
SMILES | RN4220 kill | BJeLR lethal | ugtP null kill | Mtb hypoxia inh | Mtb hypoxia inh growth | Autofluor counter | PrP 5UTR inh
Cc1nc2cc(CC(=O)O)ccc2o1 | 0.5 | 5 | 2 | 8 | 4 | 3927 | 9
CC1CCc2c(C(=O)NCCCN3CCOCC3)csc2C1 (stereo not drawn) | 5.7 | -6 | 11 | 18 | 4 | 8856 | 11
Oc1ccc(-c2csc(-c3cccnc3)n2)c(O)c1 | 6.7 | 1 | 2 | 2 | 0 | 5174 | -48
CC(C)Cn1cnc2c1c(=O)n(CC(=O)O)c(=O)n2Cc1ccccc1 | 2.1 | -4 | 5 | -12 | 0 | 3955 | -15
Cc1cccc2cc(C3CC(c4cccs4)=NN3C(=O)CCC(=O)O)c(Cl)nc12 (stereo not drawn) | 15 | 5 | -18 | -17 | -6 | 10067 | -6
O=C(NNc1c(F)c(F)cc(F)c1F)c1ccco1 | 5.1 | / | 3 | 1 | 15 | 3497 | -6
Cc1c(C(=O)Nc2ccc(OCc3ccccc3)cc2)cccc1[N+](=O)[O-] | 8.2 | -16 | -2 | 2 | 5 | 15838 | -15
COC(=O)CSc1nc2ccc(C)cc2[nH]1 | 3.3 | 0 | 5 | / | / | 2066 | -14
COc1ccccc1-n1c(SCC(=O)Nc2cccc3ccccc23)nc(O)cc1=O | / | -6 | / | / | / | 2887 | -26
Cc1ccc(C(=O)CCC(=O)N(C)CC(=O)Nc2c(Cl)cccc2Cl)cc1 | 3.9 | 6 | 12 | 9 | 3 | 6064 | -3
CCn1c(SC(C)C(=O)Nc2nccs2)nnc1-c1ccncc1 (stereo not drawn) | 0.8 | -1 | 2 | 4 | 7 | 6740 | -12
Cc1ccc(S(=O)(=O)Nc2ccc3c(c2)nc(CCN2CCCCC2)n3C)cc1 | 0.1 | 12 | 0 | 15 | 4 | 3460 | -11
CCOP(=O)(OCC)c1cc(C)c(O)c(C(C)(C)C)c1 | -3.6 | 2 | -12 | -9 | -9 | / | -17
O=C(c1ccccc1)c1nnc(-c2ccccc2F)o1 | 4.6 | -7 | 6 | -2 | -2 | 6631 | -26
Cc1cccc(Cl)c1NNC(=O)Nc1c([N+](=O)[O-])c(C)nn1C | 4.7 | -2 | 13 | 3 | 0 | 3301 | -18
CC(O)[C@H]1CNCCN1CC1(c2ccccc2)CC1 (stereo partly drawn) | / | -2 | / | / | / | 4291 | -10
Cc1noc(C)c1S(=O)(=O)Nc1ccc(C(=O)N2CCc3ccccc3C2)cc1 | 3.1 | 4 | 3 | / | / | 3701 | 5
Nc1nc(SCc2ccccc2)c2ncn(C3CCCO3)c2n1 (stereo not drawn) | 5.0 | / | -2 | 18 | 14 | 3639 | -31
CCOc1cc(Br)c(/C=C2/C(=O)N(C)C(=S)N2CC(=O)OC)cc1OC | 6.2 | -5 | -2 | 7 | 0 | 2663 | -12
Cc1ccc(C2=NNC(C(O)C(O)C(O)C(O)CO)S2)cc1 (stereo not drawn) | 9.4 | 1 | 13 | / | / | 3603 | -21
c1ccc(OCc2nnc3sc(-c4cccs4)nn23)cc1 | 8.7 | 4 | 5 | -2 | 6 | 3558 | -21
COc1ccc(C(OC(=O)c2c(C)noc2C)C(=O)NC2CCCC2)cc1 (stereo not drawn) | 2.6 | 6 | -2 | 2 | -8 | 19678* | -8
S=c1nc(C2CCCCC2)[nH]c2ccccc12 | 7.4 | -16 | 9 | 17 | 1 | 4274 | -15
Cc1cc(C)nc(NC(=O)CSc2nnnn2-c2ccccc2)n1 | 4.9 | 0 | 9 | 1 | 11 | / | -18
CON=CC(C(C)=O)C(=O)Nc1ccc(Cl)cc1Cl (stereo not drawn) | 3.5 | / | 5 | 8 | 8 | / | /
Cc1cccc(C=Cc2nc3ccccc3c(=O)n2Cc2ccccc2)c1 | -3.0 | / | 1 | 7 | 4 | / | /
